Screening results: PubChem BioAssay, Johns Hopkins Ion Channel Center
KCNQ2 block: KCNQ2 potassium channel inhibitors, primary screen, cell-based, CHO-K1, FluxOR thallium flux, B-score (AID 2156) | 20 min; stronger effect = lower value; only compounds with negative scores are shown here; some inactives read as strong as hits | B-score at 10 µM | actives 1.1% (n = 310,000);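 active = fluorescence ratio B-score at most minus 3 library SDs, with starting brightness B-score within 2 library SDs, cut at about -5.5 in these data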
Target sequence (O88943 whole entry, looked up): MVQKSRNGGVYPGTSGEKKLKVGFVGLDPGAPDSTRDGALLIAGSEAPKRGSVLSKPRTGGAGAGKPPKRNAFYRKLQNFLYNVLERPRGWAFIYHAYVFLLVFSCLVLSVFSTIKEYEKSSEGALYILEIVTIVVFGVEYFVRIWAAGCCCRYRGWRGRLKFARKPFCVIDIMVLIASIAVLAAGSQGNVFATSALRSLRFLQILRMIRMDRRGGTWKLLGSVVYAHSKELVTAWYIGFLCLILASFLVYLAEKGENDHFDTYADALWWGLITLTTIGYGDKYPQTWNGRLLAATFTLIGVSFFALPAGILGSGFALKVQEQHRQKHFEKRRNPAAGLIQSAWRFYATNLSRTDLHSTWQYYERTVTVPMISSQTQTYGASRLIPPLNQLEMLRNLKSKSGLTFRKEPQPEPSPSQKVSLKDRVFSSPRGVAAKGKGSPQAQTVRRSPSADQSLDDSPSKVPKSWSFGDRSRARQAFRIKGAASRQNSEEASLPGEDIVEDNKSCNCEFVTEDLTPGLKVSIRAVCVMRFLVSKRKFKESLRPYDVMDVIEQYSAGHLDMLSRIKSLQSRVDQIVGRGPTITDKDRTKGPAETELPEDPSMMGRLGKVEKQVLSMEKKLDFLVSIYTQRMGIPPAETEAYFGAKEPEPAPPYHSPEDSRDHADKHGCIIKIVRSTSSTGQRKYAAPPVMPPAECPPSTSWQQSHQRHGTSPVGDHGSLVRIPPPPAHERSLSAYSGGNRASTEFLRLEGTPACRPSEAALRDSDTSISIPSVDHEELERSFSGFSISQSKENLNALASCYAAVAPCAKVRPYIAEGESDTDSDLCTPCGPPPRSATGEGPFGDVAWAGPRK
KCNQ2 block baseline: further read-out of KCNQ2 block, marked with its call; B-score; measured here: initial fluorescence intensity artifact check;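 brightness before thallium and not channel activity; 0 = typical well and far values either way flag optical interference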
An asterisk follows results filed as active; i = inactive.

cpd	compound	KCNQ2 block	KCNQ2 block baseline
1	Cn1c2ccccc2c2cc(/C=N/NC(=O)c3ccccc3F)ccc21	i	-0.78
2	CNCC(O)CN(c1ccccc1)c1ccccc1 (stereo not drawn)	i	-2.3
3	Cc1ccc2c(=O)cc(C(=O)NC3CCS(=O)(=O)C3)oc2c1 (stereo not drawn)	i	0.01
4	NC(=O)[C@@H]1CCCN1Cc1c(C(=O)N2CCc3ccccc3C2)nc2ccc(Cl)cn12	i	2.8
5	COc1cc(-c2cc(C(=O)OCC(=O)Nc3ccc4c(c3)OCO4)c3ccccc3n2)cc(OC)c1OC	i	-1.1
6	COc1cc2c(c3oc(-c4ccccc4)cc(=O)c13)C=CC(C)(C)O2	-6*	-0.3*
7	CCOC(=O)N1CCN(C(=O)c2cc3ccccc3o2)CC1	i	0.85
8	COc1nnc(-c2ccc(N3CCOCC3)c(NC(=O)c3ccc(C)cc3)c2)c2ccccc12	i	-0.36
9	O=C(COc1cccc(Cl)c1)Nc1cc(S(=O)(=O)N2CCOCC2)ccc1N1CCOCC1	i	-0.49
10	Cc1cc(N2CCN(c3nnnn3-c3ccccc3)CC2)n2ncnc2n1	i	0.73
11	COc1ccc(S(=O)(=O)N2CCC(C(=O)Nc3ccc4c(c3)OCCO4)CC2)cc1OC	i	0.39
12	CC(C)Oc1ccc(C(=O)Nc2ccc(N(C)C)cc2)cc1	i	0.2
13	O=C(Nc1ccccc1-c1ccccc1)C1CCCCC1	i	1.1
14	CC(OC(=O)/C(C#N)=C/c1ccc(N(C)C)cc1)C(=O)NCc1ccco1 (stereo not drawn)	i	0.02
15	CNC(=O)NNC(=O)c1csc(-c2ccc(C(F)(F)F)cc2Cl)n1	i	0.62
16	CCN(CC)S(=O)(=O)c1ccc(N2CCCC2)c(NC(=O)c2ccncc2)c1	i	-0.68
17	CCC(=O)N1CCc2cc(S(=O)(=O)NC(Cc3ccccc3)C(=O)Nc3nccs3)ccc21 (stereo not drawn)	i	1.9
18	COC(=O)c1cc(S(=O)(=O)Nc2cccc(-c3cnco3)c2)oc1C	i	-1
19	CC(=O)c1ccc(-n2c(C)ccc2-c2ccccc2)cc1	i	0.65
20	O=C(NCc1ccccn1)Nc1ccccc1Cl	i	-1.3
21	COC(=O)c1cc(S(=O)(=O)NCCc2ccc(Cl)cc2)c[nH]1	i	-0.94
22	Cc1ccccc1OCC(=O)NCC(c1cccs1)N1CCOCC1 (stereo not drawn)	i	1.1
23	COc1ccc(Cl)cc1C(=O)N1CCN=C1SC	i	0.68
24	Cn1cccc1Cc1nnc(SCC(N)=O)n1CCc1ccccc1	i	-0.87
25	CC1=NN(c2ccc([N+](=O)[O-])cc2)C(c2ccccc2)C1 (stereo not drawn)	i	0.46
26	Cc1ccc(C)c2nc(Cl)c(C3NC(=O)c4ccccc4N3)cc12 (stereo not drawn)	i	-1.8
27	Cc1cc(C(=O)COc2ccc(C#N)cc2)c(C)n1C1CC1	i	-1.3
28	CC(C)c1ccc(C(=O)NN2CCOCC2)cc1	i	2
29	COc1ccc2c(c1)c(CC(=O)NCc1cc([N+](=O)[O-])ccc1O)c(C)n2C(=O)c1ccc(Cl)cc1	i	0.9
30	O=C(Oc1ccc(O)cc1)C12CC3CC(CC(C3)C1)C2	i	-0.06
31	O=C(c1cccs1)N1CCN(c2ccc(Cl)cc2)CC1	i	0.03
32	CN(Cc1ccccc1)C(=O)CC(c1ccccc1)c1cc(Cl)ccc1O (stereo not drawn)	i	0.86
33	COc1ccc(OC)c(NC(=O)c2cc3ccccc3o2)c1	i	-0.47
34	CC1SC(=S)N(c2ccc(N(C)C)cc2)C1=O (stereo not drawn)	i	-0.37
35	COc1ccc(N2CCN(C(=O)COc3ccc4c(C)c(C)c(=O)oc4c3C)CC2)cc1	i	0.76
36	Cn1c(CN2CCOCC2)nnc1SCC(=O)Nc1ccc([N+](=O)[O-])cc1O	i	1.2
37	O=C(CSc1ncnc2c1cnn2Cc1ccccc1)Nc1ccc2c(c1)OCCO2	i	-1.1
38	O=C(Cn1c(=O)oc2cc(S(=O)(=O)N3CCCC3)ccc21)N1CCN(c2ccccc2F)CC1	i	-1
39	O=C(N/N=C/c1coc2ccccc2c1=O)c1ccccc1	i	-0.36
40	O=C(O)c1cc([N+](=O)[O-])ccc1NCCO	i	1.5
41	O=C(c1ccc(=O)[nH]n1)N1CCc2ccccc2C1	i	0.6
42	N/N=c1\sc2ccccc2n1-c1ccccc1	i	2.1
43	CC(C)CCc1noc(CN(C)CCC2CCOCC2)n1	i	-0.77
44	O=C(CSc1nnc(CNC(=O)c2ccco2)o1)Nc1cccc(Cl)c1	i	-0.44
45	O=C(c1cc2cc(Cl)ccc2o1)N1CCCC1	i	-1.1
46	O=C(COC(=O)CCC(=O)c1cccs1)Nc1ncc(Cl)cc1Cl	i	1.2
47	COc1ccc(C(c2nnnn2C(C)(C)C)N2CCN(c3nc4ccccc4s3)CC2)cc1 (stereo not drawn)	i	1.4
48	N#CC1=C(N)Oc2cc(N)ccc2C1c1ccccc1Cl (stereo not drawn)	i	1.5
49	CCCCc1nnc2c(N(C)S(=O)(=O)c3ccccc3)nc3ccccc3n12	i	-0.42
50	Cc1ccc(-c2nn(-c3ccccc3)cc2C(N)=O)o1	i	-2.2
51	COCCCn1nnnc1SCC(=O)N1CCN(C(=O)c2ccco2)CC1	i	0.39
52	Cc1ccc(-c2nn(C)c(=O)c3ccccc23)cc1CNC(=O)/C=C/c1ccccc1	i	0.02
53	COc1cc(S(=O)(=O)NCc2ccccc2)ccc1F	i	-0.24
54	CCN(CC)S(=O)(=O)c1ccc(OC(C)C)c(NC(=O)C2=COCCO2)c1	i	-0.73
55	O=C(O)C1CCC(=O)N1Cc1ccc(F)cc1 (stereo not drawn)	i	-0.03
56	Cc1c(N=C/C=C/c2ccccc2)cnn1C	i	1.8
57	COc1cccc(NC(=O)CCC2CCN(C(=O)C3CC=CCC3)CC2)c1 (stereo not drawn)	i	-1.7
58	CC(C)C[C@H]1CN=C(Nc2ccccc2)N1CCCC1CCCC1	i	0.33
59	C[C@@H](C(=O)Nc1ccc2c(c1)OCCO2)n1nnc2ccccc2c1=O	i	-3.6
60	C=CCC(C(=O)OC)(C(=O)OC)c1ccccc1[N+](=O)[O-]	i	1.7

Continuation:
cpd	compound	KCNQ2 block	KCNQ2 block baseline
61	CC(=O)c1cccc(NC(=O)CC2S/C(=N/N=C/c3ccccc3)NC2=O)c1 (stereo not drawn)	i	1.2
62	Cc1ccc(NC(=O)CC2S/C(=N/N=C3/NC(=O)CS3)NC2=O)cc1 (stereo not drawn)	i	1.8
63	CCc1c(C)nc2c(-c3ccccc3)c(C)[nH]n2c1=O	i	-0.09
64	Cc1ccc(NC(=O)CSc2nnc(-c3cc(C)on3)o2)cc1	i	-0.76
65	CCOC(=O)c1ccc(COC(=O)CNC(=O)CNC(=O)c2ccc(OC)cc2)o1	i	3.2
66	CCOC(=O)C(=O)C1C(=O)Nc2ccccc21 (stereo not drawn)	i	1.4
67	CC(=O)OC1CC[C@@]2(C)C(CCC3C2CC(=O)[C@@]2(C)C3CC3CC(C)=CC(=O)C32)C1 (stereo partly drawn)	i	-1.1
68	Cc1nc(NC(=O)c2cccc(Cl)c2)sc1-c1csc(Nc2cccc(Cl)c2)n1	i	-0.74
69	CCOc1ccc(CCNC(=O)Cc2ccc(NC3=NC4CS(=O)(=O)CC4S3)cc2)cc1OCC (stereo not drawn)	i	0.03
70	C/C(=N\NC(N)=S)c1cccnc1	i	2.2
71	CCN1C(=O)[C@@H]2[C@@H](c3ccc(-c4ccc(F)cc4)cc3)N3CCCC[C@@]3(C(=O)OC)[C@@H]2C1=O	i	1.3
72	CC(=O)c1c(C)cc(C)c(CSc2nc(C)cc(=O)[nH]2)c1C	i	2.5
73	Cc1ccc2cc(S(=O)(=O)NCCC(=O)O)ccc2c1	i	5.2
74	COc1ccc(N=C2CCCN2CC(N)=O)cc1	i	-0.48
75	O=C1C=C(c2cccs2)CC(c2cccs2)C1n1cnc([N+](=O)[O-])c1 (stereo not drawn)	i	1.8
76	CCOc1ccc(C(=O)Nc2ccccc2-c2ccccc2)cc1Cl	i	-0.54
77	Cc1c(C(=O)NCCc2ccccc2)oc2ccccc12	i	0.49
78	COc1ccc(C(=O)CSc2nccn2C)cc1	i	-3
79	CN(C)c1ncc(S(=O)(=O)c2ccccc2)c(-c2ccccc2Cl)n1	i	0.37
80	CC(C)(C)NC(=O)C(=O)NN=C1CCCCCCC1	i	-0.83
81	CC(=O)Nc1cccc(NC(=O)C(F)(F)F)c1	i	-0.5
82	Cc1ccc(S(=O)(=O)NN=C2CCC(C(C)(C)C)CC2)cc1[N+](=O)[O-] (stereo not drawn)	i	0.01
83	O=C1CC(N2CCN(c3ccc(F)cc3)CC2)C(=O)N1Cc1ccccc1 (stereo not drawn)	i	-0.01
84	COc1ccc(NC(=O)CSc2nnc(-c3ccccc3C)n2N)cc1	i	0.4
85	C#CCOc1ccc(/C=C2/C(=O)ON=C2C)cc1Cl	i	-0.6
86	COc1ccc(-c2csc(N3CCN(C(=O)c4ccccc4)CC3)n2)cc1	i	-0.07
87	CC(C(=O)Nc1ccc(S(N)(=O)=O)cc1)N1CCc2ccccc21 (stereo not drawn)	i	2.6
88	Cc1cc(C)c(S(=O)(=O)c2ccccc2)c(=O)[nH]1	i	-0.29
89	O=C(Nc1ccc(NC(=O)C2CC2)nc1)c1ccncc1	i	1.3
90	Cc1ccc(S(=O)(=O)N(CC(=O)Nc2cccc([N+](=O)[O-])c2)Cc2ccc(Cl)cc2)cc1	i	1.1
91	CC1(c2ccccc2)CC(C)(C)N(C(N)=O)c2ccccc21 (stereo not drawn)	i	0.83
92	CC(C)C(=O)N1CCN(c2ccccc2NC(=O)COc2ccc(C3CCCCC3)cc2)CC1	i	0.12
93	Cc1ccc(S(=O)(=O)N2CC(C)N(S(C)(=O)=O)C2)cc1 (stereo not drawn)	i	-0.22
94	c1ccc2c(CN3CCCCC3)csc2c1	i	1.5
95	COCC(C)NC(=O)c1cc2cccc([N+](=O)[O-])c2[nH]1 (stereo not drawn)	i	0.69
96	CCC(C)(C)NC(=O)C(c1ccncc1)N(Cc1cccs1)C(=O)Cn1nnc2ccccc21 (stereo not drawn)	i	0.65
97	CCOC(=O)Cc1cnc(NC(=O)c2ccccc2)s1	i	-1.3
98	COCCNS(=O)(=O)c1cc(OC)ccc1OC	i	2.4
99	Cc1cc(C(=O)OCC(=O)N2CCC(c3ccccc3)=N2)ccc1[N+](=O)[O-]	i	0.14
100	C=CCOc1cccc(C2c3c(oc4ccc(F)cc4c3=O)C(=O)N2CCCN2CCOCC2)c1 (stereo not drawn)	i	2.5

Values by screen from the list:
KCNQ2 block baseline, entries 63 to 67 → -0.09, -0.76, 3.2, 1.4, -1.1
KCNQ2 block, entries 63 to 67 → i, i, i, i, i

Additional records
cpd	compound	KCNQ2 block	KCNQ2 block baseline
101	Cc1ccc(COc2ccc(/C=N/NC(=O)CN3CCCCC3)cc2)cc1	i	1.6
102	Cc1cccc(N2CCN(S(=O)(=O)c3ccc(-c4cc(C)no4)s3)CC2C)c1 (stereo not drawn)	i	1.3
103	CC1(C)CC(NC(=O)c2cc(Cl)ccc2Cl)CC(C)(C)N1	i	-0.45
104	O=C(COc1ccc(Br)cc1)NNC(=S)NCc1ccccc1	i	-0.63
105	Cc1ccccc1-n1c(Cn2c(=O)sc3ccccc32)nnc1SCC(=O)N1CCCC1	i	1.9
106	CCCCNC(=S)N(C)/N=C/c1c(F)c(F)c(F)c(F)c1F	i	0.67
107	O=C(NCc1ccccn1)c1cc(-n2cnnc2)ccc1Cl	i	-0.42
108	C=CCOc1c2ccc(C(=O)NCc3ccc(C)cc3)cc2nn1C	i	3.1
109	CCOC(=O)c1c(C(C)(C)C)oc2ccc(OCC#N)cc12	i	1.4
110	CC(C)CCN(CCC(C)C)CC(O)Cn1c2ccccc2c(=O)c2ccccc21 (stereo not drawn)	i	0.47
111	CCc1cccc(C)c1NC(=O)CSc1nc2ccc(N3C(=O)c4ccccc4C3=O)cc2s1	i	-0.04
112	COc1ccc(-n2c(C)cc(/C=C3\SC(=S)NC3=O)c2C)cc1	i	1.7
113	CCc1ccc(NC(=O)NCCCN2CCCC2=O)cc1	i	-1
114	Cc1[nH]nc2c1C(c1ccc(OC(=O)c3ccco3)cc1)C(C#N)=C(N)O2 (stereo not drawn)	i	0.89
115	CN1C=C(C(F)(F)F)C=C/C1=C(\C#N)c1nnc2n1CCCCC2	i	0.06
116	Cc1ccc(NS(=O)(=O)c2cccc(C(=O)NCC3CCCO3)c2)cc1 (stereo not drawn)	i	-0.98
117	CC(=C1C(=O)c2ccccc2C1=O)N1CCN(CCN=CC2=C(O)CC(C)(C)CC2=O)CC1	i	1.5
118	Cc1ccccc1-c1nn(-c2ccc(F)cc2F)cc1CNCCN(C)C	i	1.3
119	Clc1ccccc1CO/N=C1\CCCc2nonc21	i	0.54
120	O=C(/C=C/c1ccccc1)NC(=S)Nc1ccc(CN2CCOCC2)cc1	i	0.02

Exported with one line to a screen: part of the list above
113. CCc1ccc(NC(=O)NCCCN2CCCC2=O)cc1
114. Cc1[nH]nc2c1C(c1ccc(OC(=O)c3ccco3)cc1)C(C#N)=C(N)O2 (stereo not drawn)
115. CN1C=C(C(F)(F)F)C=C/C1=C(\C#N)c1nnc2n1CCCCC2
116. Cc1ccc(NS(=O)(=O)c2cccc(C(=O)NCC3CCCO3)c2)cc1 (stereo not drawn)
117. CC(=C1C(=O)c2ccccc2C1=O)N1CCN(CCN=CC2=C(O)CC(C)(C)CC2=O)CC1
118. Cc1ccccc1-c1nn(-c2ccc(F)cc2F)cc1CNCCN(C)C

screen / no.	113	114	115	116	117	118
KCNQ2 block	i	i	i	i	i	i
KCNQ2 block baseline	-1	0.89	0.06	-0.98	1.5	1.3

Some of the compounds tested; rates above refer to the full screens.
